nsP2pro inh: inhibitors of chikungunya virus nsP2 protease; Q8JUX6; FRET peptide cleavage, nsP2pro, fluorescence 1 h; Potency, µM (highest dose often 24.9 µM), without a hit: at the top dose activity change, negative = inhibition, actives largely listed as inhibitors; 31,000 compounds, 1.1% hits; active means well fitted inhibition curve with a large enough effect; inconclusive means small, poorly fitted or top-dose-only effect; inactive means no such curve, though single readings can be large or run the other way; also: nearly all actives have a fitted effect of over 60% in size; a reference inhibitor and vehicle were the controls
Target sequence (Q8JUX6 whole entry, looked up): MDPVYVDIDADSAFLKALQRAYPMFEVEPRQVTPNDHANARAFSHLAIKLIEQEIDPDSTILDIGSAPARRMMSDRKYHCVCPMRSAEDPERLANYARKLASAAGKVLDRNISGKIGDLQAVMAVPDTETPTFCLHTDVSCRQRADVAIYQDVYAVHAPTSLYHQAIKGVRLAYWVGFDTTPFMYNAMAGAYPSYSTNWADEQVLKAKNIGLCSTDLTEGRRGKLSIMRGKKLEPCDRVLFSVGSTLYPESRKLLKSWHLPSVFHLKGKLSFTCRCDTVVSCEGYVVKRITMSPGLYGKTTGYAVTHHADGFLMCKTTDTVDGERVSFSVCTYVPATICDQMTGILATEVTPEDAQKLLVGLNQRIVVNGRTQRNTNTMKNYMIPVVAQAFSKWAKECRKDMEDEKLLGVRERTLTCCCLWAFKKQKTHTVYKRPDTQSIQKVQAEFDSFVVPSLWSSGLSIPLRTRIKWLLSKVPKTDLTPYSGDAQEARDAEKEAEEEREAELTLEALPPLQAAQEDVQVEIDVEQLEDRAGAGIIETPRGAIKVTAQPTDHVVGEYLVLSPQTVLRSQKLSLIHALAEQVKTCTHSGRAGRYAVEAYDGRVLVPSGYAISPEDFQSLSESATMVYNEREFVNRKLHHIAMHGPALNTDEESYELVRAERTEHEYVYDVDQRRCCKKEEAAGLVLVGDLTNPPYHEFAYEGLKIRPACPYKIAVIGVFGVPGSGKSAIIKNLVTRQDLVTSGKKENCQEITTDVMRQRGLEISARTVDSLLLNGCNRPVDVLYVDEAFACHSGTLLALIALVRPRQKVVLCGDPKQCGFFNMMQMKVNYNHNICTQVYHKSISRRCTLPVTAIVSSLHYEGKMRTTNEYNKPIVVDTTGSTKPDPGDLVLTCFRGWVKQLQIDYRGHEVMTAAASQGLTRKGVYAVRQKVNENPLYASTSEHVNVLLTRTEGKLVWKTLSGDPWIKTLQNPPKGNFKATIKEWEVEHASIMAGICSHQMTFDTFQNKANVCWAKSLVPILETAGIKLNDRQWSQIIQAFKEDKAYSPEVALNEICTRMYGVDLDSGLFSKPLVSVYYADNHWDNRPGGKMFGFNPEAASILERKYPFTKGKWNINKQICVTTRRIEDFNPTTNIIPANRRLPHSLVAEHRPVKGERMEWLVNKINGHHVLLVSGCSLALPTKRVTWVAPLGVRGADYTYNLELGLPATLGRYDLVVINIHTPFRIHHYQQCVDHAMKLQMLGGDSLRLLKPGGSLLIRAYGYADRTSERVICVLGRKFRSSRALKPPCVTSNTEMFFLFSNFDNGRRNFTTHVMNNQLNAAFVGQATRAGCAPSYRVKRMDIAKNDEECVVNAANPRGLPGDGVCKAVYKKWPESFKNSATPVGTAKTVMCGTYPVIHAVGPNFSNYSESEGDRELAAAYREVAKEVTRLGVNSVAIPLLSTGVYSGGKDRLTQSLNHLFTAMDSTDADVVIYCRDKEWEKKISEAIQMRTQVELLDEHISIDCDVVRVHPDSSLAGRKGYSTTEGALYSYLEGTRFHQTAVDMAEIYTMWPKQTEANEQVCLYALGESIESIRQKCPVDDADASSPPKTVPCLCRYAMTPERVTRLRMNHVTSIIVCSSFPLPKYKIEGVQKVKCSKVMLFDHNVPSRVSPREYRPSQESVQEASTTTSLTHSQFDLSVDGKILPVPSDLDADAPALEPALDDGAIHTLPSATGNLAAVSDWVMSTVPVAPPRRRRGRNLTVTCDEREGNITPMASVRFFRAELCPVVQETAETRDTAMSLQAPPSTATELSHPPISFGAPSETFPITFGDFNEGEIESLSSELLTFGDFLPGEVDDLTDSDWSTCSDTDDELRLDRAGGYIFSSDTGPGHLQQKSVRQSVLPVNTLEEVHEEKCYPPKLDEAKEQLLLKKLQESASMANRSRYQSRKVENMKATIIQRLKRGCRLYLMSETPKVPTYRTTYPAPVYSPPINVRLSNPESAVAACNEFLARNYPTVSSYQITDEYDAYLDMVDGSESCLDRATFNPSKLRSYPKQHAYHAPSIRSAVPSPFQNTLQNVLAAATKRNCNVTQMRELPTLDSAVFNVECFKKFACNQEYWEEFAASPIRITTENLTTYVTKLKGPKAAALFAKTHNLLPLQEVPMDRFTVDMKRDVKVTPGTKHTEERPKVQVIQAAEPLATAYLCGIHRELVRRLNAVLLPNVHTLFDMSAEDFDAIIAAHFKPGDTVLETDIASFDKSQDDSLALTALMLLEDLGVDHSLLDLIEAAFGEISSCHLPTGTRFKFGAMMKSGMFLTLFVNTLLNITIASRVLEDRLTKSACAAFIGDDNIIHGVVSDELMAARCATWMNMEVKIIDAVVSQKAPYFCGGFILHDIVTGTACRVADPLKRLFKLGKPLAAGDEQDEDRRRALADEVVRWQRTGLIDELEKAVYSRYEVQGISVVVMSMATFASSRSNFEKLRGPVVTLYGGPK
* = called active by the depositor; i = inactive; ? = inconclusive; & = joins results of further samples; [ ] = dose if it differs, or a comment. % is scaled to controls: 0 for no effect and ±100 for the full control effect; potency is read from the fitted curve at half-maximal effect. This is a subset; the hit share may differ from the screen's.

Start of the data: the first 4 records (preview)
| molecule | nsP2pro inh |
| --- | --- |
| COc1ccc(CC(=O)NCC(c2cccs2)S(=O)(=O)c2ccc(F)c(C)c2)cc1 (centres undefined) | -17% |
| CCN(CC)c1cc(CCC(=O)N2CCC(C)CC2)ccn1 | i |
| COCCN1C(=O)CC[C@]2(C(=O)N3CCCCCC3)CCCC[C@@H]12 | 4% |
| Cc1ccc(C)c(S(=O)(=O)c2nnn3c2nc(NC(C)C)c2sccc23)c1 | -19% |

This part in full, from the first entry:
| molecule | nsP2pro inh |
| --- | --- |
| COc1ccc(CC(=O)NCC(c2cccs2)S(=O)(=O)c2ccc(F)c(C)c2)cc1 (centres undefined) | -17% |
| CCN(CC)c1cc(CCC(=O)N2CCC(C)CC2)ccn1 | i |
| COCCN1C(=O)CC[C@]2(C(=O)N3CCCCCC3)CCCC[C@@H]12 | 4% |
| Cc1ccc(C)c(S(=O)(=O)c2nnn3c2nc(NC(C)C)c2sccc23)c1 | -19% |
| CN1CCN(C(=O)O[C@H]2c3nccnc3C(=O)N2c2ccc(Cl)cn2)CC1 | 8% |
| Cn1nc(C2CCCN2)c2c(C(=O)N3CCOCC3)cc(C3CC3)nc21 (centres undefined) | -28% |
| O=C1N(CC2CC2)CCCC12CCN(S(=O)(=O)N1CCOCC1)C2 (centres undefined) | -7% |
| O=C(Nc1nn(-c2cccc(F)c2)c2cccc(N3CCOCC3)c12)C1CCC1 | -19% |
| Cc1cccc(Cn2c(=O)n(CCC(=O)NCc3ccc4c(c3)OCO4)c(=O)c3sccc32)c1 | -16% |
| Cc1ccc(CSC2=Nc3ccccc3C3=NC(CCC(=O)NC4CCCCC4)C(=O)N23)cc1 (centres undefined) | ? |
| COC(=O)c1ccc(Nc2ncnc3c2nc2n3CCCC2)cc1 | -13% |
| COC(=O)C1=CO[C@@H](O[C@@H]2O[C@H](CO)[C@@H](O)[C@H](O)[C@H]2O)[C@H]2[C@@H]1C=C[C@@]21C=C([C@H](C)O)C(=O)O1 | -2%[10 µM] |
| COc1ccc(C2C=C(c3ccccc3)Nc3nc(NC(C)=O)nn32)cc1 (centres undefined) | -23% |
| COc1ccc2oc(=O)c(-c3cn4c(n3)sc3cc(OC)ccc34)cc2c1 | -20% |
| COc1ccc2[nH]c(C[C@@H]3C[C@@H](C(C)C)[C@H](CNC(=O)c4cccnc4)C=C3C)nc2n1 | i |
| N#CN1CCC(NC(=O)c2cccc(C(F)(F)F)c2)CC1 | -4% |
| COc1cc(-c2onc(C)c2C(=O)NCCCOC(C)C)cc(OC)c1OC | 0% |
| O=C(NCCN1CCCCC1)c1ccc(Cn2c(SCc3cccc(F)c3)nc3cccnc32)cc1 | 57%[activator] |
| COc1ccc(-c2nc(C)nc3c2CCN([S+](=O)([O-])c2cccc(OC)c2)CC3)cc1 | 0% |
| CCc1nc(C)c(C(=O)N2C[C@@H](c3ccc(F)cc3)[C@@H]3[C@H]2C2CCN3CC2)o1 | -3% |
| Cc1cccc(C)c1-n1ncc(C(=O)NCCCN2CCC(C)CC2)c1C1CCN(C(=O)OC(C)(C)C)CC1 | -11% |
| Fc1ccccc1-c1nc(NCc2ccc(-c3cccnc3)cc2)c2ccccc2n1 | i |
| C[C@H](Oc1ccc(S(C)(=O)=O)cc1C(=O)N1CCN(c2ncc(C(F)(F)F)cc2F)CC1)C(F)(F)F | ? |
| CC(C)(C)OC(=O)N1CCN(c2ccc(NCc3cnc(-c4ccc(C#N)cc4)o3)cc2)CC1 | 0% |
| Cc1cccc(N2CCN(S(=O)(=O)c3ccc4c(c3)CCCN4C(=O)C3CCC3)CC2)c1C | -12% |
| Cc1ccc(S(=O)(=O)Nc2cnccc2C(=O)Nc2nc3ccccc3s2)cc1 | i |
| COc1ccccc1C1c2c(ncn(-c3ccccc3)c2=N)Oc2ccc3ccccc3c21 (centres undefined) | 4% |
| COC1CC(O[C@H]2CC[C@@]3(C)C(CCC4C3CC[C@]3(C)[C@@H](C5=CC(=O)OC5)CC[C@]43O)C2)OC(C)C1O (some centres undefined) | 27%[10 µM] |
| CC(=O)NC(c1ccco1)c1cc(Br)c2cccnc2c1O (centres undefined) | ? |
| COc1ccc(OC)c(NC2=C(c3ccccc3)C(=O)c3ccccc32)c1 | ? |
| C[C@]1(CO)C2CC[C@H]3OC(=O)C[C@H]3[C@]2(C)CC[C@H]1OC(=O)Nc1ccccc1 (some centres undefined) | 0%[39.2 µM] |
| O=C(c1nnc(COc2ccc3c(c2)OCO3)n1Cc1ccccc1)N1CCC[C@@H]1c1ccc(Br)cc1 | i |
| O=C(Cn1c(SCc2ccccc2F)nc2ccncc21)Nc1ccccc1C(F)(F)F | -4% |
| O=S(=O)(Nc1ccc(O)c(NS(=O)(=O)c2ccccc2)c1)c1ccccc1 | ? |
| O=C(NCCCc1ccccc1)C1CCN(c2nc(-c3ccc(Br)cc3)cs2)CC1 | i |
| Cc1ccccc1OC1(C(=O)O)CCN(Cc2ccc(CO)o2)CC1 | -5% |
| COc1cc(N)c(Cl)cc1C(=O)NC1CCN(Cc2ccccc2)CC1 | 8% |
| O=[S+]([O-])(c1cccc(C(F)(F)F)c1)N1CCc2nc(-c3ccccc3)nc(-c3ccc(Cl)cc3)c2C1 | -6% |
| O=C(COc1ccccc1)Nc1ccc(C(=O)OCc2cc(=O)n3nc(C4CC4)sc3n2)cc1 | -12% |
| O=Nc1c(-c2c(O)[nH]c3ccc(F)cc23)[nH]c2ccccc12 | -1% |
| NC(=O)c1csc(C2OC(CO)C(O)C2O)n1 (centres undefined) | -3% |
| CC(C)(NC(=O)Nc1ccccc1Cl)C(=O)N1CCC(C(=O)O)CC1 | -4% |
| O=S(=O)(c1ccccc1)N1CCN(S(=O)(=O)c2ccc3c(c2)OCCO3)CC1 | i |
| COc1cc(-c2nn(C3CCC(N4CCN(C(C)=O)CC4)CC3)c3ncnc(N)c23)ccc1NC(=O)c1cc2ccccc2n1C (centres undefined) | 39%[activator] |
| COc1cccc(C(=O)NCCc2nc3ccccc3n2CCOc2ccc(C)cc2)c1 | ? |
| O=[S+]1([O-])NC2(CCCN(Cc3c(F)cccc3Cl)C2)COc2ccccc21 (centres undefined) | -7% |
| Cc1ccc(Cl)cc1N(C)C(=O)c1cnc(N2CCOCC2)c2ccccc12 | -19% |
| Cc1ccc(NS(=O)(=O)c2ccc3c(c2)CCC(=O)N3C)cc1Cl | 1% |
| Cc1ccc(S(=O)(=O)N2CCC(C(=O)NCc3ccccc3Cl)CC2)cc1 | -15% |
| CSc1ncc(C(=O)Nc2ccccc2C(=O)c2ccccc2)c(C(F)(F)F)n1 | -20% |

Further results follow.
Structure	nsP2pro inh
Cc1cccc(NC(=O)CSc2ncc(-c3ccccc3)[nH]2)c1C	-17%
C=C1C(=O)O[C@@H]2CC(C)=C([C@@H](C)CCCO)[C@@H](OC(=O)C(C)C)[C@H]12	48%[activator]
CCc1ccc(NC(=O)CC2C(=O)N(c3ccc(C)cc3)C(=O)N2C2CCCC2)cc1 (centres undefined)	-9%
COc1ccc(C(=O)N2CCOCCNC(=O)[C@H]3CCCC[C@H]32)c(OC)n1	1%
O=S(=O)(c1ccccc1)n1nc(-c2ccco2)nc1NCc1ccccc1	?
Cc1cc(C)cc(NC(=O)CN2C(=O)COc3ccc(S(=O)(=O)Nc4ccccc4)cc32)c1	-29%
CC(C)NS(=O)(=O)c1ccc2c(c1)nc(-c1ccc(CO)o1)n2C(C)C	-19%
O=C1NCCCCCN(Cc2cccnc2)[C@H]2CCC[C@@H]12	1%
CC(=O)Nc1ccc(NC(=O)c2cccc(CN3CCCC(C#N)C3)c2)cc1 (centres undefined)	?
Cc1ccc(OCCn2c(CCNC(=O)c3ccc(C(F)(F)F)cc3)nc3ccccc32)cc1	-2%
c1cc(CN2CCCNCCNCCCNCC2)ccc1CN1CCCNCCNCCCNCC1	65%[activator][2.68 µM]
O=C(NCc1ccccc1)c1cc2sccc2n1Cc1ccc(F)cc1	7%
O=S(=O)(Nc1cccc(-c2ccc(N3CCOCC3)nn2)c1)c1cc(C(F)(F)F)ccc1Cl	-4%
COc1ccc(C2=Nn3c(nnc3-c3ccccc3Cl)SC2)cc1OC1CCOC1 (centres undefined)	-5%
COc1ccccc1C(=O)Nc1nc(-c2ccccc2)cs1	-6%
O=C1Cc2c(-c3ccoc3)n[nH]c2CN1Cc1ccccc1	-25%[39.2 µM]
CCOc1cccc(C(c2c(C)n(C)n(-c3ccccc3)c2=O)c2c(C)n(C)n(-c3ccccc3)c2=O)c1OC	-4%
Cn1c(=O)cc(SCC(=O)N2CCN(c3ccccc3F)CC2)c2ccccc21	-19%
O=C(O)c1cc(O)c2c(c1)[C@H]([C@H]1c3cc(C(=O)O)cc(O)c3C(=O)c3c(O[C@@H]4OC(CO)C(O)C(O)C4O)cccc31)c1cccc(O[C@@H]3OC(CO)C(O)C(O)C3O)c1C2=O (some centres undefined)	-17%
CC(=O)Nc1sc2c(c1-c1cccc3c1sc1ccccc13)CCNC2	i
CC(NC(=O)CCCn1c(=O)c2cccn2c2cccnc21)c1ccccc1 (centres undefined)	-21%
Cc1cc2c(cc1S(=O)(=O)Nc1cc(C(F)(F)F)cc(C(F)(F)F)c1)OCC(=O)N2	-16%
CCCCOC(=O)c1ccc(Nc2nc3ccc(C(=O)c4ccccc4)cc3n3cnnc23)cc1	-18%
Cc1cc(C)nc(NC(=S)N2CCN(c3cnccn3)CC2)c1	-6%&-4%
Cc1ccc(-c2ccc(=O)n(CC(=O)NCCCc3ccccc3)n2)cc1	-6%

Reprinted at random: four records from the list
Structure	nsP2pro inh
Cn1c(=O)cc(SCC(=O)N2CCN(c3ccccc3F)CC2)c2ccccc21	-19%
CCCCOC(=O)c1ccc(Nc2nc3ccc(C(=O)c4ccccc4)cc3n3cnnc23)cc1	-18%
Cc1ccc(-c2ccc(=O)n(CC(=O)NCCCc3ccccc3)n2)cc1	-6%
COc1ccc(C(=O)N2CCOCCNC(=O)[C@H]3CCCC[C@H]32)c(OC)n1	1%

(cont.)
Structure	nsP2pro inh
COc1cccc2c1cc1c(=O)n(CC(=O)NC3CCCCC3)nc(C)n12	-9%
COc1cccc(C(=O)N2CCN(c3ccnc4ccnn34)CC2)c1	4%[39.2 µM]
CCOC(=O)C1CCCN(C(=O)c2ccc(NC(=O)c3nsc4ccccc34)cc2)C1 (centres undefined)	-13%
Fc1cccc(Cl)c1CNc1n[nH]c(-c2ccco2)n1	-31%
Cc1cc(NS(=O)(=O)c2ccc3c(c2)CCC(=O)N3)ccc1Cl	3%
O=C(CCCCc1ccc2ccccc2c1)C(F)(F)F	-17%[39.2 µM]
COc1cccc(CN2CC[C@@](O)(C3CC3)[C@H](C)C2)c1OC	i
COc1ccc(CNCCC(c2ccc(C)cc2)c2ccco2)cc1 (centres undefined)	-31%
CC(=O)N1CCN([C@H]2CCN(C(=O)N(C)[C@H](C)c3cc(C(F)(F)F)cc(C(F)(F)F)c3)[C@@H](c3ccc(F)cc3C)C2)CC1	14%
O=C(NCc1cccs1)c1ccc2c(c1)N(Cc1cccc(F)c1)C(=O)c1ccccc1S2	-12%
C(=N\Nc1nc(Nc2ccccc2)nc(N2CCOCC2)n1)/c1c[nH]c2ccccc12	29%
COc1ccc(CN(Cc2ccccc2)C(=O)c2ccccc2)cc1COc1ccc(NC(C)=O)cc1	?
CCOc1ccc(CN2C(=O)c3ccccc3Sc3ccc(C(=O)NCCc4ccccc4)cc32)cc1	-24%
Cc1ccc(OCCn2c(CCNC(=O)C3CCC3)nc3ccccc32)cc1	-6%
CCOC(=O)c1ccc(NC(=O)CC2Nc3cccc4cccc(c34)NC2=O)cc1 (centres undefined)	-17%
Cc1nn(C)c2c1c(-c1ccccc1)cc(=O)n2CC(=O)NC(C)c1ccccc1 (centres undefined)	-27%
CCCCSc1ncnc2c1sc1nc(N3CCOCC3)c3c(c12)CCCC3	-23%
Cc1ccc(-c2nc3scc(CCNC(=O)Cc4ccc(Cl)cc4)n3n2)cc1	-18%
CC(=O)OCC(=O)[C@@]1(O)[C@H](C)C[C@H]2[C@@H]3CCC4=CC(=O)C=C[C@]4(C)[C@@]3(F)[C@@H](O)C[C@@]21C	-2%&-1%
CC1(C)CN(C(=O)c2ccnc(-n3cnnc3)c2)CC1(C)O (centres undefined)	-1%
CN(C)c1ccc(NC(=O)CN2C(=O)c3ccccc3Sc3ccc(C(=O)N4CCCC4)cc32)cc1	-33%
O=C(c1ccc2c(c1)N(Cc1c(F)cccc1Cl)C(=O)c1ccccc1S2)N1CCOCC1	-8%
COCCNC(=O)c1ccc2oc(-c3ccncc3Cl)nc2c1	i
CS(=O)(=O)N(C1CCOCC1)C1CN(C(=O)c2ccccn2)C1	4%
CCc1nn2c(=O)cc(NC3CNC3)nc2s1	i
O=Cc1ccc(-c2cc(C(F)(F)F)ccc2Cl)cc1	-8%[39.2 µM]
Cc1ccccc1S(=O)(=O)N1CCc2cc(-c3nc(NC(=O)Cc4ccc5c(c4)OCO5)sc3C)ccc21	-13%
CC(=O)N1CCc2cc(Br)cc(S(=O)(=O)NCCc3cccc(C)c3)c21	-14%
COc1ccc(Cl)cc1C(=O)NCc1nnnn1-c1ccccc1	-1%
Cc1cc(C)nc(NC(=S)N2CCN(c3cccc(S(C)=O)c3)CC2)c1 (centres undefined)	5%
O=C(O)CCCc1ccccc1	-8%&10%
CC(=O)c1ccc(NC(=O)Nc2nnc(-c3ccncc3)s2)cc1	i
CC1CC(=O)[C@]2(O)C(C(=O)OCCc3ccc(O)cc3)=CO[C@@H](O[C@@H]3O[C@H](CO)[C@@H](O)[C@H](O)[C@H]3O)[C@H]12 (some centres undefined)	-5%[10 µM]

3 compounds out of the list, sorted by heavy-atom count, ascending:
Structure	nsP2pro inh
O=C(O)CCCc1ccccc1	-8%&10%
CC(=O)N1CCc2cc(Br)cc(S(=O)(=O)NCCc3cccc(C)c3)c21	-14%
CC1CC(=O)[C@]2(O)C(C(=O)OCCc3ccc(O)cc3)=CO[C@@H](O[C@@H]3O[C@H](CO)[C@@H](O)[C@H](O)[C@H]3O)[C@H]12 (some centres undefined)	-5%[10 µM]

Assay outcomes as filed in PubChem BioAssay.
